GCN5L2 inh: qHTS Assay for Inhibitors of GCN5L2; GCN5L2 HAT assay, ThioGlo1 CoA-SH fluorescence; Potency, µM (top dose mostly 58.9 µM), for the others: at the highest dose activity change, negative = inhibition, most hits filed as inhibitors; hit rate 0.21% among 390,000; active means well fitted inhibition curve with a large enough effect; inconclusive means small, poorly fitted or top-dose-only effect, or another doubt; inactive means no such curve, though single readings can be large or run the other way
Target sequence (Q92830 whole entry, looked up): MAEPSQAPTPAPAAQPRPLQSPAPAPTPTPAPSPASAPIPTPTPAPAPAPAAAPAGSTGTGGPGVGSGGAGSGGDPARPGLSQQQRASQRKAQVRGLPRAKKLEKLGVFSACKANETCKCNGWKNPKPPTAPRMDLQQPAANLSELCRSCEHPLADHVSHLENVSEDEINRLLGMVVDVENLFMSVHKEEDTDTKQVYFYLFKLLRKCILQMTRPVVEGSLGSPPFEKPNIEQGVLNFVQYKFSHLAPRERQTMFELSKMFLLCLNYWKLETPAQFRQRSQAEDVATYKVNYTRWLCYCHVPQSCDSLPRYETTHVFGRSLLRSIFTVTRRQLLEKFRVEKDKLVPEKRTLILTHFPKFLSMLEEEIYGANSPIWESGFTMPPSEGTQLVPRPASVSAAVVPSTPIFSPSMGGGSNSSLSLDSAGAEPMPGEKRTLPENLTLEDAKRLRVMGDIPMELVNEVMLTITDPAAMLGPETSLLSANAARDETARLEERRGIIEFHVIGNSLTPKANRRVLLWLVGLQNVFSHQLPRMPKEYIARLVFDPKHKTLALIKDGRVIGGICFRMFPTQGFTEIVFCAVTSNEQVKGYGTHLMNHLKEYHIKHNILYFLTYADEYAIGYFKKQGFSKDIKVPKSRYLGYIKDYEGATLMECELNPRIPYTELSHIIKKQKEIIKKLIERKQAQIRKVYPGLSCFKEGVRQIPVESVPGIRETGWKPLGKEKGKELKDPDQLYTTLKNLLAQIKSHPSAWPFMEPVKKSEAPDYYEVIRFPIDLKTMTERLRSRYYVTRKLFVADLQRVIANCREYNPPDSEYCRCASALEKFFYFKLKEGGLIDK
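Free CoA generated was detected with ThioGlo1 (50uM) fluorescence at Ex340nm/Em540nm, read immediately and after 20 min at room temperature. Enzyme, 20 nM in HEPES pH 7.5 buffer, saw compounds 15 min before adding 75uM H3(1-25) peptide and 70uM acetyl-CoA.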
Starred values were filed as active, the others as inactive; ? = inconclusive; [ ] = dose if it differs, or a comment. On the % scale 0 is the no-effect control and ±100 the full control effect; potency means the concentration at half of the fitted maximal effect.

SMILES	GCN5L2 inh
COC(=O)CN1C(=O)Nc2ccc(C)cc2C1c1ccccc1 (centres undefined)	6%
O=C(COC(=O)c1ccccc1)Nc1ccccc1Br	-3%
Cc1ccccc1/C=N\NC(=O)c1ccc(Cn2cccn2)o1	-1%
COc1ccc(CCN2CC(C(=O)N3CCSCC3)CCC2=O)cc1 (centres undefined)	-4%
Nc1cc(Cl)ccc1C(=O)OCC(=O)NC1CCS(=O)(=O)C1 (centres undefined)	-10%
CCOc1ccc(NC(=O)c2sc3ccccc3c2Cl)cc1	-2%
O=C(COC(=O)C1CCC(=O)N1)Nc1ccc(Cl)cc1Cl (centres undefined)	-10%
CCOC(=O)c1ccc(Nc2nc(=O)c3cccnc3s2)cc1	-3%
O=S1(=O)c2ccc(Br)cc2N2CCC[C@H]2CN1Cc1ccccc1	-6%
C=CCSc1nnc2c(n1)OC=Nc1ccccc1-2	1%
CC(=O)Nc1ccc(-n2c(C)nc(=O)c(-c3ccccc3)c2C)cc1	3%
O=C(CCCNS(=O)(=O)c1cccc2nsnc12)N1CCCCC1	-1%
CC1=CC(C)(C)N(C)C(=O)N1c1ccc(Cl)cc1	-5%
CCCCC(=O)Nc1ccc(C(=O)N(CC)c2ccccc2C)cc1	-5%
COc1ccc(OC)c(NC(=O)COC(=O)CC2CCCCC2)c1	1%
Cc1ccc(S(=O)(=O)NCC(=O)OCC(=O)Nc2cccc(S(=O)(=O)NC3=NCCCCC3)c2)cc1	-11%
CCN1CCCC1CNC(=O)c1csc2c1CCCC2 (centres undefined)	-7%
Cc1ccc(-n2c(SCC(=O)N(C)C3CCS(=O)(=O)C3)nc3ccccc3c2=O)c(C)c1 (centres undefined)	-3%
CCC(c1nnnn1Cc1ccc2c(c1)OCO2)N1CCN(CC)CC1 (centres undefined)	4%
Brc1ccc(N=Cc2ccccn2)cc1	2%
COC(=O)CSc1nnc(-c2ccoc2C)n1-c1ccc(OC)cc1	0%
COc1ccc(/C=C/C(=O)OCC(=O)NCCNC(=O)COC(=O)/C=C/c2ccc(OC)cc2)cc1	2%
COC(=O)Cc1csc(NCc2ccccc2)n1	-1%
COc1cc(C(=O)NC2CC(=O)N(c3cccc(F)c3)C2)cc(OC)c1OC (centres undefined)	-1%
COc1ccc(Cl)cc1Nc1nc(C)cc(=O)[nH]1	0%
Carrying on.
SMILES	GCN5L2 inh
Fc1ccc(C(CNC(=S)NC2CCCCC2)N2CCOCC2)cc1 (centres undefined)	-5%
O=C(Nc1cnn(Cc2ccc(Cl)cc2)c1)C1CCCC1	-7%
O=C(CN1CCN(c2ccc(F)cc2)CC1)NCc1ccc(Cl)cc1	-3%
CC(=O)Nc1ccc(S(=O)(=O)NCCC(=O)OCC(=O)c2cccc(Br)c2)cc1	-3%
O=S(=O)(Nc1ccc2c(c1)OCCO2)c1ccc2oc3ccccc3c2c1	-20%
COc1cc(NC(=O)CCC(=O)O)nc(OC)n1	-2%[0.501 µM]
CC1(C)OC(=O)N2CCc3ccccc3C21C (centres undefined)	-1%
O=C1CC(c2c[nH]c3ccccc23)C(=O)N1c1ccccc1 (centres undefined)	0%
Cc1cc(C)c(C#N)c(SCC(O)COc2ccc(Br)cc2)n1 (centres undefined)	-10%
N=C(c1ccc([N+](=O)[O-])cc1)N1CCCCC1	15%
CC(=O)c1ccc(NC(=O)Cn2c(=O)c3cccn3c3ccccc32)cc1	-5%
O=C(/C=C/c1ccccc1)Nc1cc(-c2nc3cc(Cl)ccc3o2)ccc1Cl	-3%
CC(=O)COc1cc(C)cc2oc(=O)c(C)c(C)c12	1%
Cc1ccc2c(c1)c1c(c(=O)n(-c3ccccc3)c(=O)n1CC(=O)N1CCCC1)n2C	2%
CN(Cc1nc2ccccc2n1C)S(C)(=O)=O	-10%
O=C(O)c1cccc2c1C(=O)c1cc(Br)ccc1S2(=O)=O	-2%
O=c1c2ccccc2[nH]c(=S)n1CCC1=CCCCC1	-1%
CC[n+]1ccccc1/C=C/Nc1ccccc1	-5%
Clc1ccc(Nc2ccc(-n3ccnc3)nn2)cc1Cl	9%
O=C(NCC(c1ccco1)N1CCCC1)c1cc(=O)[nH]c2ccccc12 (centres undefined)	-6%
CCC(c1nnnn1Cc1ccc2c(c1)OCO2)N1CCN(c2ccccc2)CC1 (centres undefined)	-21%
CCOC(=O)c1nnn(-c2nc(OC)nc(N3CCCC3)n2)c1-c1ccccc1	9%
CCOC(=O)CSc1nnc(Cn2c(=O)sc3ccccc32)n1-c1ccccc1C	3%
Cc1cccnc1NC(=O)Nc1cccc(C(F)(F)F)c1	-1%
CCCn1c(SCC(=O)Nc2ccc3c(c2)OCCO3)n[nH]c1=O	0%

Retrieved by compound from the entries so far (3):
SMILES	GCN5L2 inh
O=C(NCC(c1ccco1)N1CCCC1)c1cc(=O)[nH]c2ccccc12 (centres undefined)	-6%
O=S(=O)(Nc1ccc2c(c1)OCCO2)c1ccc2oc3ccccc3c2c1	-20%
Clc1ccc(Nc2ccc(-n3ccnc3)nn2)cc1Cl	9%

The list goes on:
SMILES	GCN5L2 inh
CCOC(=O)c1ccc(S(=O)(=O)NC2CC2)cc1	-2%
Cc1ccc(N2C(=O)N(CC(=O)NCc3ccc(Cl)cc3)C(=O)C2C)cc1 (centres undefined)	-9%
Cc1ccccc1Nc1c(-c2c[nH]c3ccccc23)nc2ccccn12	-5%
CC(C)Oc1ccc(CNS(=O)(=O)c2ccc3c(c2)C(C)(C)C(=O)N3C)cc1	-18%
O=C(CN1CCN(c2ccccc2)CC1)Nc1ccc(-n2cnnn2)cc1	1%
CNC(=O)CN(c1cccc(Br)c1)S(C)(=O)=O	-9%
COc1ccc(/C(N)=N/OC(=O)c2ccc3c(c2)OCO3)cc1	-5%
CC1=C(C(=O)OCC(C)C)C2(O)C(=O)c3ccccc3C2(O)N1 (centres undefined)	-1%
CCOc1ccc(NC(=O)CCNS(=O)(=O)c2ccc(Br)s2)cc1	-1%
CCCNC(=O)[C@@H]1CCCN1C(=O)C1CCN(S(=O)(=O)c2ccc(C)cc2)CC1	-6%
Cc1cc(S(=O)(=O)NC[C@H]2O[C@@H](n3cnc4c(N)ncnc43)[C@H](O)[C@@H]2O)c(C)s1	3%
O=C(CNC(=O)c1cccs1)OCC(=O)c1ccccc1Cl	-8%
Cc1csc(=O)n1CC(=O)OCC(=O)N(CC(C)C)c1c(N)n(Cc2ccccc2)c(=O)[nH]c1=O	0%
O=C(/C=C/Nc1ccc([N+](=O)[O-])cc1Br)c1cccc2ccccc12	-9%
CC(=O)Oc1ccc2c(C)c(CC(C)O)c(=O)oc2c1 (centres undefined)	?
O=C1COc2ccc(C(=O)CSc3ccccc3C(=O)O)cc2N1	-11%
CC(=O)Nc1cccc(N=NN2CCCCC2)c1	-4%
COc1ccc(CC(=O)N2CCCC(C)C2)cc1 (centres undefined)	?
CC(C)(C)OC(=O)COc1cc(F)ccc1[N+](=O)[O-]	2%
COC(=O)c1ccc(OCC2c3cc(OC)c(OC)cc3CCN2C(C)=O)cc1 (centres undefined)	-10%
Cc1nn(C)cc1/C=C(/C#N)C(N)=O	-11%
CSCCC(NC(=O)COc1ccccc1)C(=O)N1CC(C)CC(C)C1 (centres undefined)	-4%
CCOC(=O)COc1ccc(C(=O)Nc2cccc(Cl)c2C)cc1	6%
NCC(O)(CS(=O)(=O)O)c1ccc(Cl)cc1 (centres undefined)	-1%
COc1ccc(C(=O)NC2CCN(CC(=O)NCc3ccccc3F)CC2)cc1	-6%

3 of the entries above in order of their number in GCN5L2 inh, smallest number first:
SMILES	GCN5L2 inh
O=C(/C=C/Nc1ccc([N+](=O)[O-])cc1Br)c1cccc2ccccc12	-9%
COc1ccc(/C(N)=N/OC(=O)c2ccc3c(c2)OCO3)cc1	-5%
CC1=C(C(=O)OCC(C)C)C2(O)C(=O)c3ccccc3C2(O)N1 (centres undefined)	-1%

The list goes on:
SMILES	GCN5L2 inh
Fc1cccc(CN2CCN(Cc3nc(-c4cnccn4)no3)CC2)c1	-2%
O=C(C[C@H]1C[C@H](C(=O)N2CCCCC2)[C@@]2(CCc3ccccc3)c3[nH]c4ccc(Cl)cc4c3CCN2C1=O)NCCCn1ccnc1	-9%
CCN(CC(=O)Nc1c(F)cccc1F)C(=O)/C=C/c1ccc(S(=O)(=O)N2CCCCCC2)cc1	1%
COc1ccc(OCCCN2CCCC(C)C2)cc1 (centres undefined)	-1%
Cc1ccc(N2CC(C(=O)N3CCC(C(=O)Nc4cccc(Br)c4)CC3)CC2=O)cc1 (centres undefined)	-7%
Cc1ccc(S(=O)(=O)NCc2ccc(C(=O)N3CCCC3)cc2)cc1	0%
CNC(=O)c1cc2cc(Cc3ccccc3Cl)ccc2oc1=O	-1%
O=S(=O)(NC(=S)c1ccccc1)c1ccc(F)cc1	2%
COc1ccc(NS(=O)(=O)c2ccc(N3CCOCC3)c(NC(=O)c3ccco3)c2)cc1	-10%
O=C(CN1CCCCC1)Nc1nnc(-c2ccc([N+](=O)[O-])cc2)s1	-5%
CCCCN1C(=O)Nc2ccccc2S1=O (centres undefined)	1%
CN(C)CCCO/N=C(\c1ccccc1)c1ccncc1	16%
Cc1nnc(N2CCN(c3cccc(C(F)(F)F)c3)CC2)c2c1nnn2Cc1ccccc1	-6%
CSc1nc2nc3c(c(=O)n2[nH]1)CCCC3	3%
CCN1CCN(S(=O)(=O)c2ccc(Cl)c(C(=O)NC3CC3)c2)CC1	-1%
Cn1c(N2CCCCC2)cc(=O)n(C)c1=O	1%
Cc1ccc(CSc2ncc(Cl)c(C(=O)Nc3nc4ccc(C)cc4s3)n2)cc1	-3%
COc1cccc(Cn2nnc(C(=O)NCc3ccc(Cl)cc3Cl)c2N)c1	-4%
CC1C=CCC2C(=O)N(c3ccc(Cl)cc3O)C(=O)C12 (centres undefined)	1%
Cn1nccc1C(=O)Nn1cnnc1	-9%
O=C(CSCC(=O)NC1CC1)Nc1ccccc1	1%
Cn1c(=O)c2c(-c3ccc(C(C)(C)C)cc3)n(N3CCOCC3)cc2n(C)c1=O	-8%
Cc1ccc2c(c1)CC1(CN2C)C(=O)OC2(CCCCC2)OC1=O	-9%
CCc1ccccc1NC(=O)C1(S(=O)(=O)c2ccc(Cl)cc2)CC1	2%
CN1C(C(=O)NCc2ccc(OC(F)(F)F)cc2)CC2Cn3c(nc4cc5ccccc5cc43)C21 (centres undefined)	-2%
(further entries)
SMILES	GCN5L2 inh
N#Cc1c(Nc2ccccc2)sc(C(=O)C2CC2)c1N	0%
COc1ccc(C(C(=O)NC2CCCC2)N(Cc2ccc(F)cc2)C(=O)c2ccn[nH]2)cc1OC (centres undefined)	-11%
Cc1ccc(Nc2nc(-c3c(C)n(C)n(-c4ccccc4)c3=O)c(C)s2)cc1	-7%
CCCCCCCCCn1cc(C(C)=O)c(=O)[nH]c1=O	-4%
CCOC(=O)C(CCCOc1ccccc1)C(=O)OCC	2%
CN(C)/C=C1/C(=O)Nc2ccccc21	-26%
Cc1ccc(C(=O)NCC(=O)OC(C)C(=O)NC2CCCc3ccccc32)cc1 (centres undefined)	-3%
Cc1ccc(-n2nc3c(c2NC(=O)c2ccc4c(c2)OCO4)CSC3)cc1	-6%
COc1cc(NC(=O)CCS(=O)(=O)c2ccc3c(c2)oc(=O)n3C)cc(OC)c1OC	-6%
CCOCCn1c(SC(C)C(C)=O)nc2c1c(=O)[nH]c(=O)n2C (centres undefined)	-6%
CCOC(=O)c1c(C)nc2ccccc2c1C	-7%
CS(=O)(=O)N(CC(=O)NC1CCCC1)c1cccc(F)c1	0%
CCN1CCN(c2ccc(S(=O)(=O)N3CCCCC3)cc2NC(=O)Cc2c(F)cccc2Cl)CC1	0%
O=C(CN1CCN(c2ccccc2O)CC1)NCCCc1ccccc1	-4%
COC(=O)CC1SC(=O)NC1=Nc1ccc(C)cc1 (centres undefined)	1%
COc1ccnc(N=CNOCc2cccc(Cl)c2Cl)c1C#N	-6%
Nc1cccc([N+](=O)[O-])c1	-9%
N#Cc1ccc(-c2ccc(F)cc2)nc1Sc1ccc(F)cc1	14%
COc1cccc(NC(=S)NNC(=O)CCn2cc([N+](=O)[O-])cn2)c1	-5%
CS(=O)(=O)N(CCc1ccccc1)CC(=O)Nc1ccccc1	1%
Cn1c(=O)c2c(nc(NCc3ccco3)n2CC(O)CO)n(C)c1=O (centres undefined)	1%
C/C=C(/C)C(=O)OC1c2c(ccc3ccc(=O)oc23)OC(C)(C)C1OC(C)=O (centres undefined)	-6%
O=C(Nc1nnc(C2COc3ccccc3O2)o1)c1ccc(F)cc1 (centres undefined)	1%
CCNC(=S)N/N=C(\C)c1cccc([N+](=O)[O-])c1	-2%
CC(=O)Nc1nc(SCC(=O)Nc2nnc(C)s2)[nH]c(=O)c1NC(=O)c1cccs1	-6%

Laid out differently: entries from further up.
mol: CCN1CCN(c2ccc(S(=O)(=O)N3CCCCC3)cc2NC(=O)Cc2c(F)cccc2Cl)CC1
  GCN5L2 inh = 0%

mol: O=C(CN1CCN(c2ccccc2O)CC1)NCCCc1ccccc1
  GCN5L2 inh = -4%

mol: COC(=O)CC1SC(=O)NC1=Nc1ccc(C)cc1 (centres undefined)
  GCN5L2 inh = 1%

mol: COc1ccnc(N=CNOCc2cccc(Cl)c2Cl)c1C#N
  GCN5L2 inh = -6%

Assay outcomes deposited in PubChem BioAssay by National Center for Advancing Translational Sciences (NCATS).

Not all compounds are listed, and most or all hits are left out here.
